Bioassay records as filed in PubChem BioAssay.
MARV entry inh – Marburg virus entry inhibition | Potency, µM (titrated, usually from 37.8 µM), without a hit: top-dose activity change, negative = inhibition, usual class: inhibitors | 300,000 tested, 1.8% active | AID 540276 | Marburg virus pseudotyped entry inhibition, cell reporter; control for the full effect not named in the record; about a third of the inactives were read at about 46 µM; active = well fitted inhibition curve with a large enough effect; inconclusive = small, poorly fitted or top-dose-only effect, or effect the other way; inactive = flat fitted curve, though single readings scatter; tested in HEK293 cells; about a fifth of its hits are not listed in these tables; note: % is set by controls: 0 for no effect and ±100 for the full control effect; luciferase read-out
StopGo reporter – FMDV 2A StopGo reporter, luciferase signal | human cells with a luciferase reporter of 2A StopGo recoding; control for the full effect not named in the record | Potency, µM (highest dose often 57.9 µM), for inactives: top-dose signal change, negative = less light | 410,000 tested, 1.2% active | AID 1159524; active = well fitted falling curve with a large enough effect; inconclusive = small, poorly fitted or top-dose-only effect; inactive = no such curve, though single readings can be large or run the other way; tested in HEK293T cells; note: % is set by controls: 0 for no effect and ±100 for the full control effect; nearly all actives have a fitted effect of over 45% in size; luciferase light after 4 h
Lassa entry inh – blocks Lassa virus binding to or entry into cells. 300,000 tested, 1.2% active. Potency, µM (highest dose often 37.9 µM), for inactives: at the highest dose activity change, negative = inhibition, most hits filed as inhibitors. Lassa virus pseudotype entry inhibition, cell reporter; control for the full effect not named in the record. AID 540256; active means well fitted inhibition curve with a large enough effect; inconclusive means small, poorly fitted or top-dose-only effect, or effect the other way; inactive means flat fitted curve, though single readings scatter; tested in HEK293 cells; note: % is set by controls: 0 for no effect and ±100 for the full control effect; nearly all actives have a fitted effect of over 50% in size; luciferase read-out
Cruzain Triton – blocks cruzain activity in presence of Triton detergent. P25779. purified cruzain, Z-FR-AMC fluorescence, 0.01% Triton. Potency, µM, without a hit: max response, negative = inhibition, actives largely listed as inhibitors. 200,000 tested, 0.43% active; active = well fitted curve in the direction sought with a large enough effect; inconclusive = small, poorly fitted or top-dose-only effect, or another doubt; inactive = no such curve, though single readings can be large; an effect the other way counts as inactive or inconclusive;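 note: plate controls were neutral wells for no effect and buffer without enzyme for full effect; nearly all actives have a fitted effect of over 40% in size; top concentration of the series not given in the record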
Target sequence (P25779 123-467 limits assumed): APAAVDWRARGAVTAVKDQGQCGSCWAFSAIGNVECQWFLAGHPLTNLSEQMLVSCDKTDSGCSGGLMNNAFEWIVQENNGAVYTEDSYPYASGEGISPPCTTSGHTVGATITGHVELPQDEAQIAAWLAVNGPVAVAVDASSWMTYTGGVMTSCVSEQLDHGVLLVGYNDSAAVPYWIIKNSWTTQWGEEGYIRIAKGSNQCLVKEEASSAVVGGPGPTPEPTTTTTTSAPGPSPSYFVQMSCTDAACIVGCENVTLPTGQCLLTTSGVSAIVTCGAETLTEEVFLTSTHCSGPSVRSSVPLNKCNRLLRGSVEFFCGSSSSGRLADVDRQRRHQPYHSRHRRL
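Cysteine protease activity tested under reducing, mildly acidic conditions (100 mM sodium acetate pH 5.5, 5 mM DTT) plus 0.01% Triton X-100. Cruzain 1.5 nM; substrate Z-FR-AMC 2 uM; 15 min compound preincubation at room temperature.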
Cruzain noTriton – blocks cruzain activity in detergent-free assay; 200,000 tested, 2.3% active; Potency, µM, without a hit: max response, negative = inhibition, most hits filed as inhibitors; P25779; purified cruzain, Z-FR-AMC fluorescence, no detergent; active = well fitted curve in the direction sought with a large enough effect; inconclusive = small, poorly fitted or top-dose-only effect, or another doubt; inactive = no such curve, though single readings can be large; an effect the other way counts as inactive or inconclusive;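 note: plate controls were enzyme without inhibitor for no effect and buffer without enzyme for full effect; nearly all actives have a fitted effect of over 40% in size; top concentration of the series not given in the record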
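Purified cruzain at 1.5 nM, pre-incubated 15 min with compound at room temperature in 100 mM sodium acetate pH 5.5, 5 mM DTT, 0.00005% Triton X-100. Reaction started with 2 uM Z-FR-AMC; AMC fluorescence increase over 60 s gives rate.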
NS1 function inh – influenza NS1 inhibition | S. cerevisiae slowed by influenza A NS1, growth recovery by OD600 | Potency, µM (top dose mostly 46.1 µM), for the others: at the highest dose activity, positive = more growth | 270,000 tested, 0.4% active | AID 2326; note: actives are rising curves; nearly all actives have a fitted effect of over 50% in size
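A cell-based growth assay was used: compounds that relieve NS1-induced slow growth of budding yeast raise OD600. Assay medium was yeast nitrogen base with ammonium sulphate and -URA supplement, pH 6.0, with 2% galactose.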
SARS PLpro yeast – inhibitors of SARS-CoV papain-like protease in yeast; S. cerevisiae expressing SARS-CoV PLpro, growth rescue; control for the full effect not named in the record; Potency, µM (titrated, usually from 32.9 µM), inactives show top-dose activity, positive = growth rescue; 330,000 tested, 0.19% active; AID 485353; note: 0% is about no effect; nearly all actives have a fitted effect of over 55% in size; growth read by luminescence after 48 h
RE007 growth inh – less growth of the S. pombe RE007 Vpr strain | S. pombe RE007 Vpr strain, BacTiter-Glo ATP luminescence, 24 h; control for the full effect not named in the record | Potency, µM (doses to about 92.2 µM), for inactives: at the highest dose activity change, negative = less growth | 360,000 tested, 0.21% active; active = well fitted falling curve with a large enough effect; inconclusive = small, poorly fitted or top-dose-only effect; inactive = no such curve, though single readings can be large or run the other way;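 note: % is set by controls: 0 for no effect and ±100 for the full control effect; nearly all actives have a fitted effect of over 50% in size; the assay follows cell death caused by Vpr and the record does not say whether a fall means rescue or toxicity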
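Fission yeast strain RE007, carrying one chromosomally integrated HIV-1 vpr copy, was seeded at OD 0.01 in PMG+AL medium with 23 nL pinned compound. After 24 h at 30 °C and 99% humidity, viability was read by BacTiter-Glo luminescence.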
* marks the source's active call; other numbers are inactive results; ? = inconclusive; . = no result given; & = joins results of further samples; [ ] = another dose, or the depositor's remark. Unless noted, calls come from the whole dose curve; as a rule, active means well fitted rising curve with a large enough effect; inconclusive means small, poorly fitted or top-dose-only effect; inactive means no such curve, though single readings can be large or run the other way. Potency is the fitted concentration of half-maximal effect. Hits appear at their usual frequency; about 4.5% have a hit in one of these screens.

SMILES	MARV entry inh	StopGo reporter	Lassa entry inh	Cruzain Triton	Cruzain noTriton	NS1 function inh	SARS PLpro yeast	RE007 growth inh
O=C(CCNC(=O)c1ccc(Cl)cc1)NC1CCCCCC1	7.9%	17.6%	24.9%	.	.	.	2.1%	-2.0%
Cc1ccc(S(=O)(=O)N2CCN(S(=O)(=O)c3ccc4c(c3)OCCO4)CC2)cc1	16.4%&16.4%	0.0%	1.9%	2.8%	-26.7%	2.1%	-0.1%	24.0%
COCCN(C(=S)Nc1c(C)cc(C)cc1C)C(C)c1cccnc1 (configuration not stated)	?	-11.3%	5.4%	-0.5%	-7.0%	-9.5%	14.6%	3.2%
CCOC(=O)c1ccc(NC(=O)c2c(C)oc3nc(C)nc(N4CCCC4)c23)cc1	.	-8.1%	?	-1.2%	-1.5%	.	.	.
O=C(COC(=O)c1cccs1)NCC1CCCCC1	?	8.6%	2.4%	.	.	.	-6.6%	3.5%
Cc1ccc2nc(NC(=O)C3CCCN3C(=O)OC(C)(C)C)sc2c1 (configuration not stated)	?	10.1%	-7.7%[46.1 µM]	.	.	.	1.1%	-0.2%
Cc1ccccc1NC(=O)c1sc2nc3n(c(=O)c2c1C)N=C(c1ccccc1)CS3	-8.6%[46.1 µM]	5.9%	-5.4%[46.1 µM]	-4.8%	4.9%	.	.	.
COc1cccc(N2C(=O)N(c3ccccc3Cl)C3CS(=O)(=O)CC32)c1 (configuration not stated)	-17.7%	-15.5%	10.6%	-7.8%	-2.8%	-1.8%	?	-6.0%
COc1ccccc1N1CN(S(=O)(=O)c2ccc(C)cc2)c2nc3ccccc3nc21	-17.0%	85.6%[activator]	-22.3%	.	.	.	1.0%	-4.6%
Cc1ccc(S(=O)(=O)Nc2ccccc2C=Nc2cccc(C)c2C)cc1	?	-27.3%	?	-3.9%	-5.3%	-31.3%	-40.1%	-7.6%
COc1ccccc1CNC(=O)[C@H](C)NC(=O)C1CCN(C(=O)[C@@H](N)C(C)C)CC1	.	-19.3%	.	.	.	-4.5%	-4.9%	0.2%
O=C(C1CCCCC1)N1CCCc2ccccc21	4.8%	-9.6%	7.3%	2.8%	-4.3%	-5.7%	2.0%	-1.0%
O=C(Nc1ccc(N2CCCCC2)cc1)c1ccc([N+](=O)[O-])o1	?	-5.8%	?	.	.	-31.9%	-5.0%	?
CCOc1ccc(CCNC(=O)c2cnc(C)cn2)cc1OCC	.	-6.3%	.	.	.	4.6%	25.6%	-4.3%
Cc1[nH]c2ccccc2c(=O)c1CN1CCCCC1	1.5%	-8.2%	-4.3%	-2.0%	-10.9%	?	0.3%	12.8%
O=C1C2CCCN2C(c2ccccc2)N1c1ccc(F)cc1 (configuration not stated)	1.0%	-20.3%	.	5.2%	-12.0%	7.2%	-3.8%	-2.4%
c1ccc2[nH]c(SCc3cn4ccccc4n3)nc2c1	?	20.1%	-9.6%[46.1 µM]	.	.	.	0.4%	-17.2%
O=C(c1ccc(Cn2c(=O)[nH]c3ccccc3c2=O)cc1)N1CCN(c2ccccn2)CC1	10.2%&10.2%	0.0%	-7.4%	-0.7%	-2.7%	-50.9%	-5.3%	3.0%
C=CCN(c1ccccc1)S(=O)(=O)c1cccc(C(=O)NCC(c2ccccc2OC)N2CCCC2)c1 (configuration not stated)	?	-12.5%	-26.3%	.	.	.	1.2%	0.0%
COc1ccc(NC(=O)Cc2c[nH]c3ccccc23)cc1S(=O)(=O)N1CCOCC1	?	41.8%[activator]	-20.3%[46.1 µM]	.	.	.	3.1%	4.5%
CS(=O)(=O)N(CC(=O)N1CCN(Cc2ccccc2)CC1)c1ccc2c(c1)OCCO2	-11.1%	-11.7%	6.3%	6.7%	14.4%	2.2%	6.3%	-2.8%
O=C(O)COc1ccc(NC(=O)c2ccc3c(c2)C(=O)N(C2CCCCC2)C3=O)cc1	19.0%	-8.3%	21.4%	.	.	-6.2%	-1.2%	10.6%
Cc1cccc(NC(=S)NC(C)C(c2ccccc2)N2CCN(C)CC2)c1C (configuration not stated)	?	1.5%	.	.	.	.	-2.1%	-2.8%
CCCc1nc(NCC2CCCO2)c2nnn(Cc3ccccc3)c2n1 (configuration not stated)	-16.2%	-4.0%	-22.3%	-4.6%	13.8%	2.1%	-10.2%	0.4%
Cn1c(C(=O)O)c(S(=O)(=O)c2ccc(Cl)cc2)c2ccccc21	.	14.0%	.	.	.	0.5%	0.4%	-14.6%
NS(=O)(=O)c1ccc(NC(=O)CCCCCN2C(=O)c3ccccc3C2=O)cc1	14.3%	-17.1%	26.6%	.	.	.	-2.4%	1.0%
O=C(Nc1nnc(S(=O)(=O)N2CCCc3ccccc32)s1)c1ccc(Cl)cc1	.	0.0%	7.8%[46.1 µM]	-1.8%	-2.0%	.	.	.
NC(=O)NCCC1=CCCCC1	-1.2%	7.9%	.	7.3%	4.1%	-3.2%	8.5%	-8.0%
COc1ccc2c(c1)c(CC(=O)Nc1cc(C)cc(C)c1)c(C)n2C(=O)c1ccc(Cl)cc1	?	-9.1%	14.4%[46.1 µM]	0.3%	-10.7%	.	.	.
CC(CC(=O)NCc1ccc(Cl)cc1)CC1=NS(=O)(=O)c2ccccc2N1 (configuration not stated)	.	6.7%	-13.5%[46.1 µM]	0.8%	-1.7%	.	.	.
CCCOc1ccc(C2C(=O)N(C3CCCCCC3)CC(=O)N2CCCOCC)cc1OC (configuration not stated)	.	-25.9%	-16.2%[46.1 µM]	-0.7%	?	.	.	.
COc1ccc(NC(=O)CN(c2ccccc2C)S(C)(=O)=O)c(OC)c1	.	5.7%	.	.	.	4.0%	-2.3%	-13.0%
OC(c1ccccc1)(c1ccccc1)c1nccc2ccccc12	-13.8%	-22.3%	?	.	.	.	.	18.1%
O=C(Cc1ccc(F)cc1)N/N=C/c1ccc(-c2ccc(Cl)c(C(=O)O)c2)o1	0.4%	-9.5%	7.7%	.	.	.	0.6%	-5.5%
O=[N+]([O-])c1cccc(-c2cn3nc(-c4ccccc4)c(-c4ccccc4)nc3n2)c1	.	-7.4%	.	.	.	5.5%	-0.6%	11.8%
Cc1ccoc1C(=O)Nc1ccc2ccccc2c1	?	?	10µM*	.	.	-111.2%	-17.6%	?
O=C(C1=C[C@@H](c2ccc(Br)cc2)C[C@@H](OCCCCO)O1)N1CCN(Cc2ccc3c(c2)OCO3)CC1	.	-27.7%	.	.	.	-14.9%	-1.4%	-12.1%
COc1cccc(/C=C2\SC(=O)N(CCC(=O)NC3CCS(=O)(=O)C3)C2=O)c1 (configuration not stated)	.	-5.0%	.	.	.	-13.3%	-1.1%	-1.9%
CCCCN1C(=O)c2[nH]nc(-c3ccccc3O)c2C1c1cc(Br)c(O)c(OC)c1 (configuration not stated)	4.4%[46.1 µM]	-7.6%	?	-14.4%	?	.	.	.
COc1ccc(CCNC(=O)C(=O)Nc2ccc3nc4n(c(=O)c3c2)CCCCC4)cc1OC	.	-14.7%	.	.	.	-1.0%	0.2%	-5.5%
COc1ccccc1CN1CCCC(C(=O)N2CCCCC2)C1 (configuration not stated)	0.1%[14.2 µM]	-8.9%	0.8%	.	.	8.5%	1.8%	-10.0%
CCOC(=O)C1[C@H]2C(=O)N(C(C)c3ccc(OC)cc3)C[C@]23C=C[C@H]1O3 (some centres not stated)	3.9%	-3.9%	11.3%	2.1%	3.1%	4.7%	-0.4%	2.3%
N#CC/C(N)=N/Nc1nc2ccccc2nc1Cc1ccccc1	-23.6%[46.1 µM]	4.8%	-9.2%	.	.	?	0.4%	-2.0%
CCn1nccc1C(=O)Nc1ccc(S(=O)(=O)NC23CC4CC(CC(C4)C2)C3)cc1	?	-2.5%	?	-8.5%	5.9%	-22.4%	-23.0%	-2.1%
CCCO/N=C1/C(=O)N(c2ccccc2)c2ccccc21	-12.5%[46.1 µM]	-8.8%	-5.3%	.	.	.	-4.9%	-24.7%
CCOC(=O)c1[nH]c(COC(=O)CCCOc2ccccc2)c(C(=O)OCC)c1C	-15.6%	-5.3%	-6.5%	-4.3%	-0.4%	-4.5%	-2.2%	-3.0%
O=C(CSc1nnnn1-c1ccc(F)cc1F)Nc1ccccc1F	17.6%[46.1 µM]	0.5%	2.4%[46.1 µM]	.	.	10.4%	3.7%	13.9%
Cn1nc(CC(=O)NCc2ccc(C(F)(F)F)cc2)c2ccccc2c1=O	?	15.8µM*	-22.8%	-0.2%	11.2%	1.1%	2.6%	5.0%
CCc1ccc(C2C(C(=O)Nc3ccccc3)=C(C)Nc3c(C(=O)Nc4ccc(C)cc4)cnn32)cc1 (configuration not stated)	.	-8.9%	?	-3.5%	-10.1%	.	.	.
COc1ccc(CNC(=O)CN2C(=O)COc3ccccc32)c(OC)c1	.	9.5%	?	0.5%	7.2%	.	.	.
COCC(=O)Nc1nnc(-c2ccc(C(C)(C)C)cc2)s1	.	30.8%[activator]	.	.	.	-4.4%	-4.4%	0.3%
CCC(=O)N(C(=O)CC)N1CCN(c2ccncc2S(=O)(=O)N2CCCCC2)CC1	?	-20.8%	?	.	.	-11.7%	-4.0%	10.6%
Cc1cc(SCC(=O)Nc2ccc(F)cc2F)nc(=O)[nH]1	.	-8.5%	2.4%[46.1 µM]	-5.4%	-13.4%	.	.	.
Cc1nn(Cc2ccccc2Cl)c(Cl)c1C(=O)OCC(=O)NC(=O)NC1CCCCC1	1.8%	-21.4%	-1.1%	-9.4%	-3.9%	22.4µM*	-3.3%	3.9%
Cc1ccccc1NC(=O)COc1ccc2oc(=O)cc(C)c2c1	.	-9.6%	.	.	.	-4.2%	-1.1%	-10.5%
O=C(/C=C/c1ccccc1)Nc1nnc(SCC(=O)c2ccc3ccccc3c2)s1	23.4%	13.2%	-8.3%	0.8%	6.31µM*	2.8%	-12.3%	-9.7%
